# Screening data (PubChem)
# H5N1 CPE = MDCK cell protection from H5N1 avian flu. cytopathic effect, luminescence, 72 h; active compounds read high; no value below 0 was filed and about half of the inactive calls have no number; reference of the scale not given here. inhibition, % at 50 µM. 96,000 tested, 0.07% active. AID 740; in the data active = inhibition above about 25%
# Starred values were filed as active, the others as inactive; i = inactive. The list is partial; count on the stated rates, not on these rows.
SMILES,H5N1 CPE
COc1ccc2[nH]cc(C(=O)CN(C)CCc3ccc(OC)c(OC)c3)c2c1,i
COc1ccc(-c2nc(C#N)c(N3CCN(c4ccccc4)CC3)o2)cc1,2.2
Cc1cc(C)n(C(=O)CNc2cccc(Cl)c2C)n1,i
Cc1cc(NC(=O)C2CC(=O)OC2c2ccccc2)no1 (stereo unspecified),i
N#Cc1c2c(c(NCc3cccnc3)n3c1nc1ccccc13)CCC2,1.2
O=C(Cc1c(C(=O)O)[nH]c2ccccc12)NCCN1CCN(c2ccccc2F)CC1,0.2
CCOc1cc(CNCc2ccncc2)cc(Br)c1OCc1ccccc1F,i
COc1ccc2c(c1)C(c1ccccc1)=NNC(c1ccco1)=N2,0.4
O=C(CSc1nnc2sc3ccccc3n12)N1CCN(c2ccccc2)CC1,12.0
CCN(CC)c1nc(C)c2c(c1C#N)CC(C)(C)OC2,1.3
Cc1ccc(CN(C)CCc2ccccn2)cc1,i
O=C(O)CSC(NC(=O)c1cccnc1)(C(F)(F)F)C(F)(F)F,i
Cc1ccc(Nc2nc(N)nc(CN3CCN(Cc4ccc5c(c4)OCO5)CC3)n2)c(C)c1,i
COc1ccc(Oc2c(C)oc3c(CN4CCOCC4)c(O)ccc3c2=O)cc1,i
O=C(Nc1ccc(F)cc1F)N1CCCCC1c1cccnc1 (stereo unspecified),1.4
CCOc1ccc(NC(=O)CCSc2nc3c(c(CC)c2C#N)C(=O)CC(C)(C)C3)cc1,1.7
O=C(Nc1ccc(N2CCN(C(=O)c3ccco3)CC2)c(Cl)c1)c1cccs1,i
O=C(Nc1ccc(Br)c(Cl)c1)c1ccco1,i
O=c1c2ccccc2n(Cc2ccc(Cl)cc2)c(=O)n1Cc1ccco1,i
COc1ccc2c(c1)C(=NN)c1cc(OC)ccc1-2,i
O=C(Cn1c2ccccc2c(=O)c2ccccc21)N/N=C/c1cc([N+](=O)[O-])ccc1N1CCCCCC1,0.1
CCOCCCNC(=O)c1[nH]c(C)c(C(C)=O)c1C,0.7
Cc1ccc(S(=O)(=O)N2CCOCC2)cc1C(=O)OCC(=O)N1c2ccccc2NC(=O)C1(C)C,i
COc1ccc(-c2c(C)n([O-])c3c([n+]2=O)CCC3)cc1OC,0.3
CCOc1ccc(C(=O)OCn2nnc3ccccc3c2=O)cc1OC,0.2

# Next section, overlapping the part above by 6 compounds.
SMILES,H5N1 CPE
COc1ccc2c(c1)C(=NN)c1cc(OC)ccc1-2,i
O=C(Cn1c2ccccc2c(=O)c2ccccc21)N/N=C/c1cc([N+](=O)[O-])ccc1N1CCCCCC1,0.1
CCOCCCNC(=O)c1[nH]c(C)c(C(C)=O)c1C,0.7
Cc1ccc(S(=O)(=O)N2CCOCC2)cc1C(=O)OCC(=O)N1c2ccccc2NC(=O)C1(C)C,i
COc1ccc(-c2c(C)n([O-])c3c([n+]2=O)CCC3)cc1OC,0.3
CCOc1ccc(C(=O)OCn2nnc3ccccc3c2=O)cc1OC,0.2
c1ccc(CCNc2nc3ccccc3s2)cc1,i
CCc1ccc(OCCCOc2ccc(C=O)cc2)cc1,i
COc1ccc2oc(=N)c(-c3nnc4n3CCCCC4)cc2c1,1.1
COc1cc(OC)c2c(N)c(C#N)c(C(F)(F)C(F)(F)F)nc2c1,0.7
C=CCc1cc(C(=O)N2CCCCC2)ccc1O,0.1
COc1ccc(OCc2nnc(SCC(N)=O)n2-c2ccccc2OC)cc1,1.3
CC1=C(C#N)C(c2cccnc2)C2=C(CC(c3ccc(Cl)cc3)CC2=O)N1 (stereo unspecified),i
CCOC(=O)N1CCN(C(=O)c2sc3nc(-c4ccc(F)cc4)cn3c2C)CC1,0.5
COc1ccc(OC)c(C(=O)c2coc3ccc(OCC(=O)O)cc23)c1,0.0
COc1ccc(-c2nc(C#N)c(NCC3CCCO3)o2)cc1OC (stereo unspecified),i
Cc1ccnc(-n2c(-c3ccccc3)nc3ccccc3c2=O)c1,3.5
COc1cc(-c2nnc(SCC(=O)c3ccc(C)cc3)o2)cc(OC)c1OC,3.3
COc1cccc(C2CC(c3ccccc3Cl)n3nc(N)nc3N2)c1 (stereo unspecified),0.8
CCC(NC(=O)Nc1nccs1)(C(F)(F)F)C(F)(F)F,i
O=[N+]([O-])c1cc(Cl)cc(/C=N\Nc2ccccn2)c1O,i
CC(=O)c1ccc(OCC(O)CN2CCN(CCO)CC2)cc1 (stereo unspecified),i
Cc1cc(C)nc(NC(=O)/C=C/c2ccccc2Cl)n1,1.1
COc1ccnc(Oc2ccc(F)cc2)c1C(=O)N/C=N/OCc1ccc(F)cc1,i
COc1ccc(N2CCN(C(=O)CN(CCc3ccccc3)S(C)(=O)=O)CC2)cc1,i
C[C@H](N)c1nnc(SCc2c(Cl)cccc2Cl)o1,1.8
O=C(CSc1nnc(-c2ccccc2Br)o1)N1CCc2ccccc2C1,i
Cc1ccc(NC(=O)Cn2cccc2)c(Br)c1,i
CCOC(=O)c1nn(-c2cc(C(=O)OC)cc(C(=O)OC)c2)cc1O,0.4
CNc1nc(-c2ccc([N+](=O)[O-])cc2)cs1,i
Cn1c(=O)oc2cc(S(=O)(=O)NCCC(=O)NC3CCCC3)ccc21,0.8

# A second format for 4 compounds above.
Structure	H5N1 CPE
COc1ccnc(Oc2ccc(F)cc2)c1C(=O)N/C=N/OCc1ccc(F)cc1	i
CCOC(=O)c1nn(-c2cc(C(=O)OC)cc(C(=O)OC)c2)cc1O	0.4
O=[N+]([O-])c1cc(Cl)cc(/C=N\Nc2ccccn2)c1O	i
CNc1nc(-c2ccc([N+](=O)[O-])cc2)cs1	i

# (listing goes on)
SMILES,H5N1 CPE
COc1cc(/C=N/NC(=O)CSc2cc(C)c(Br)cc2C)ccc1O,i
CCOC(=O)N1CCN(C(=O)c2ccc(NS(C)(=O)=O)cc2)CC1,i
COC(=O)C1C(=O)C2=C(CC1C)NC(C)=C(C(=O)OCc1ccc(OC)cc1)C2c1ccc(C)o1 (stereo unspecified),i
COc1ccccc1CNC(=O)CCn1c(=O)oc2ccccc21,1.1
COc1ccc(OCc2nnc3n2N=C(c2ccc(OC)cc2)CS3)cc1,0.6
COc1ccc(NC(=O)c2cc(-c3ccccc3Cl)no2)cc1,i
Cc1c(C)c2ccc(OCC(=O)N(C)C)c(C)c2oc1=O,0.1
O=c1cc(C(F)(F)F)nc(-n2[nH]c3c(c2=O)CCCC3)[nH]1,i
CC(=O)CC(c1ccc([N+](=O)[O-])cc1)c1c(O)c2ccccc2oc1=O (stereo unspecified),i
CCOC(=O)C1CCN(c2c(NC3CCCCCCC3)c(=O)c2=O)CC1,0.1
COCCCn1c(SCc2ccccc2)nc2cc(OC)c(OC)cc2c1=N,i
Clc1ccc(CSc2nnc(CNc3cccc(Cl)c3)o2)cc1,i
CCC(Oc1ccccc1)C(=O)Nc1ccc(S(=O)(=O)N2CCOCC2)cc1 (stereo unspecified),1.7
CC1CN(C(=O)Nc2ccc3c(c2)OCO3)CC(C)O1 (stereo unspecified),i
CCOC(=O)c1cnc(SCCc2ccccc2)nc1N,i
COCCCN1C(=O)c2[nH]nc(-c3ccccc3O)c2C1c1ccc(Cl)cc1 (stereo unspecified),0.5
CCOCCCNC(=O)C(c1ccc(Cl)cc1)N1CCN(c2ccccc2)CC1 (stereo unspecified),0.8
CCCCC(=O)Nc1ccc(C(=O)NNC(=O)c2ccccc2Br)cc1,i
CC12c3ccccc3C(c3ccccc31)C1C(=O)N(Cc3cccnc3)C(=O)C12 (stereo unspecified),0.2
COc1ccccc1CNC(=O)C1CC(c2ccc([N+](=O)[O-])cc2)=NO1 (stereo unspecified),i
O=S(=O)(NCc1cc(-c2ccc(Cl)cc2)no1)c1ccc(Cl)cc1,i
CN(CC(=O)O/N=C(\N)c1ccc([N+](=O)[O-])cc1)S(=O)(=O)c1ccc2ccccc2c1,i
NC(=O)CSc1nnc(CNc2cccc(Cl)c2)n1CCc1ccccc1,0.1
COc1ccccc1S(=O)(=O)Cc1ccc(C(=O)N2CCCC2)o1,0.5
CCOC(=O)C1(CCC(C)C)CC(CSc2nc3ccccc3[nH]2)OC1=O (stereo unspecified),0.1
# Next compounds.
SMILES,H5N1 CPE
CCOC(=O)c1cnc(SC)nc1Sc1ccccc1,0.4
CC(C)CCNC(=O)NC(=O)COc1ncnc2sccc12,0.4
CN(C)C(=O)C1(c2ccccc2)CCN(S(=O)(=O)c2ccccc2)CC1,1.4
COc1cc(CN2CCC(C(=O)N3CCN(c4ccccc4F)CC3)CC2)ccc1O,i
Cc1cccc(N(Cc2ccccc2F)S(C)(=O)=O)c1,i
COc1ccc(OC)c(C2CC(=O)C3=C(C2)NC(=O)CC3c2ccc(O)c(OC)c2)c1 (stereo unspecified),0.2
Cn1c(=O)c2c(nc(Oc3ccc4c(c3)OCO4)n2Cc2ccc(F)cc2)n(C)c1=O,i
COc1cccc(-c2nnc(SCC(=O)Nc3ccc(S(N)(=O)=O)cc3)n2C)c1,i
O=C(c1ccco1)N1CCN=C1SCc1ccc(F)cc1,2.0
CCOc1ccccc1OCC(=O)Nc1ccc(Cl)cc1Cl,2.8
CCC(=O)NCCc1nc2cc(NC(=O)c3ccccc3OC)ccc2n1C,i
COc1ccc(Cl)cc1-c1n[nH]c(=S)n1C,i
CCOC(=O)c1cc2c(=O)n3cccc(C)c3nc2n(Cc2ccco2)c1=NC(=O)c1ccccc1,0.1
Cc1ccc(Nc2c([N+](=O)[O-])cc(C(=O)N3CC(=O)Nc4ccccc43)cc2[N+](=O)[O-])c(C)c1,0.5
CC1CCCCC1NC(=O)c1ccc(S(=O)(=O)N2CCCC2)cc1 (stereo unspecified),i
COC(=O)C(CC(C)C)NC(=O)c1ccc(F)cc1 (stereo unspecified),0.1
COc1ccc(NC2=Nc3ccccc3CC2)cc1,i
CCCCNC(=O)NS(=O)(=O)c1ccc(C(=O)OC)o1,0.1
Cn1c(=O)c2c(n(Cc3ccccc3)c1=O)NC(=O)C2CC(=O)O (stereo unspecified),i
COC(=O)C1=CN(c2cccc(C)c2)C=C(C(=O)OC)C1c1cc(OC)c(O)c([N+](=O)[O-])c1,i
CN(C)S(=O)(=O)Nc1ccc2c(c1)Cc1ccccc1-2,0.0
CCC(C)(C(=O)NC1CCCCC1)N(C(=O)C1CCC(=O)N1)c1ccccc1 (stereo unspecified),0.4
COc1cc(Cl)c(C)cc1NC(=O)COc1cc(C)nc(C(C)C)n1,i
N#CCSc1nc2ccccc2c(=O)n1CCC(=O)NCCc1ccccc1,3.1
COc1cc(NC(=O)c2cc3nc(C)cc(C)n3n2)c(OC)cc1Cl,0.4
# (list continues)
SMILES,H5N1 CPE
O=C(NCCc1ccccc1)c1cnn2c(C(F)F)cc(C3CC3)nc12,2.1
CCOc1ccc(N(CC(=O)NC2CCCC2)S(=O)(=O)c2c(C)noc2C)cc1,0.1
O=C(Cc1c(F)cccc1Cl)N1CCN(C(=O)c2ccco2)CC1,i
Cn1c(Cn2c(=O)sc3ccccc32)nnc1SCC(=O)NCc1ccc(F)cc1,i
CCN(CC)CCCC(C)N=C(c1ccccc1)c1c(O)n(C)c(=O)n(C)c1=O (stereo unspecified),i
C=CCc1ccccc1OCCCCN1CCCC1,i
Cc1ccc(C(C)C)c(OCc2ccc(-c3nnco3)cc2)c1,i
CCOC(=O)c1ccc(NC(=O)CSc2nnc(CCc3ccc(C)o3)n2-c2ccccc2)cc1,i
C=CCn1c(N)c(C(=O)OC(C)(C)C)c2nc3ccccc3nc21,i
Cc1ccc(C)n1-n1cnc2sc3c(c2c1=O)CCCCC3,i
CCOC(=O)C(C)CC(C)C(=O)N1CCOCCN(C(=O)C(C)CC(C)C(=O)OCC)CCOCC1 (stereo unspecified),0.8
O=C(c1cccnc1)N1CCN(Cc2ccccc2Br)CC1,0.4
CCC(=O)c1ccc(N2CCN(C(=O)c3ccc(Br)cc3)CC2)c(F)c1,0.5
COc1ccc(CNC(=O)C2CCN(c3nc(OC)nc(OC)n3)CC2)cc1,0.1
O=C(CNC(=O)Cc1ccccc1)NCC(=O)OCC(=O)c1ccccc1Cl,i
O=C(Cn1cnc2c(nnn2-c2ccc(F)cc2)c1=O)NCc1ccco1,0.3
Cc1ccc(Nc2nc(Cl)nc(N(C)C#N)n2)cc1,3.1
Cc1ccc(NC(=O)Nc2ccc(F)cc2)nc1,0.1
COc1ccc(OCC(=O)Nc2ccc(N3CCOCC3)c(Cl)c2)cc1,1.0
O=C(O)CSCCc1ccccn1,0.1
Cc1nnsc1SCCNC(=O)c1ccc(F)cc1,i
Cc1ccc(S(=O)(=O)[N-]c2nc3ccccc3nc2-n2cc[n+](CCC(C)C)c2)cc1,i
O=C(Nc1ccc2c(c1)nc1n2CCOC1)c1ccco1,1.0
O=C(COC(=O)c1c2c(nc3ccccc13)CCCC2)Nc1ccc2c(c1)OCO2,2.1
CN1/C(=C/C(=O)c2cccs2)Sc2ccccc21,i

# Laid out differently: two of the compounds above.
> Cn1c(Cn2c(=O)sc3ccccc32)nnc1SCC(=O)NCc1ccc(F)cc1
  H5N1 CPE: i

> CCN(CC)CCCC(C)N=C(c1ccccc1)c1c(O)n(C)c(=O)n(C)c1=O (stereo unspecified)
  H5N1 CPE: i

# Further compounds:
SMILES,H5N1 CPE
CC(c1cccnc1)N(C(=O)Nc1ccccc1)C1CCCCC1 (stereo unspecified),5.7
CN(C)c1ccc(CN2CC=C(c3ccc(F)cc3)CC2)cc1,0.2
COc1ccc2[nH]c(=O)c(C(c3nnnn3C3CCCC3)N(C)C3CCCCC3)cc2c1 (stereo unspecified),i
CCOC(=O)c1ccc(NC(=O)Oc2ccccc2)cc1,0.4
CCN(CC)c1nc(Nc2ccc(Cl)cc2)nc(OCC#N)n1,0.9
CC(=NCCN1CCNCC1)C1=C(O)CC(C)(C)CC1=O,i
CCOC(=O)C(C)Sc1nnc2n1C(C)(C)Cc1ccccc1-2 (stereo unspecified),1.9
COc1ccc(C(C)=O)cc1CN1C(=O)NC2(CCCCC2C)C1=O (stereo unspecified),i
Cc1ccc(N2CC(C(=O)NCCC(C)C)CC2=O)cc1 (stereo unspecified),i
CN1CCN(c2nc(C#N)cc(-c3ccccc3)n2)CC1,0.0
O=S(=O)(c1cccs1)N1CCN(Cc2nc3ccccc3s2)CC1,1.0
COc1ccc(CN2CC(C(=O)NCCN3CCOCC3)CC2=O)cc1 (stereo unspecified),0.8
